# Screens deposited in PubChem BioAssay by National Center for Advancing Translational Sciences (NCATS).
# Cruzain inh Det – qHTS Assay for Promiscuous and Specific Inhibitors of Cruzain (with detergent). Cruzipain (Trypanosoma cruzi), P25779. purified cruzain, Z-FR-AMC fluorescence, 0.01% Triton. Potency, µM, inactives show max response, negative = inhibition, usual class: inhibitors. 200,000 tested, 0.43% active. AID 1478, 2009;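 also: plate controls were neutral wells for no effect and buffer without enzyme for full effect; nearly all actives have a fitted effect of over 40% in size; top concentration of the series not given in the record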
# Target sequence (P25779 123-467 limits assumed): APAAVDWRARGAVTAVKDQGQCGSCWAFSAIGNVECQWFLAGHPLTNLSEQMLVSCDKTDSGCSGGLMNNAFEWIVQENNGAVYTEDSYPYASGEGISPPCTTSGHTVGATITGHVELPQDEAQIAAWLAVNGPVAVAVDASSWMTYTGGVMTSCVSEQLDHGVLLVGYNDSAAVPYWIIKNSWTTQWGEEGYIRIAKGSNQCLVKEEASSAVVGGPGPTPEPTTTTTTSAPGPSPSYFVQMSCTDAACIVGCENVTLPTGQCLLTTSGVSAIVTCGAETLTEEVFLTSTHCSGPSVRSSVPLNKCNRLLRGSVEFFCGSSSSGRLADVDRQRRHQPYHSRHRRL
#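 In this qHTS format, compounds are incubated with 1.5 nM cruzain for 15 min at room temperature before 2 uM Z-FR-AMC is added. Release of AMC is followed at 360/450 nm, and progress is taken as the 60 s fluorescence difference.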
# SARS PLP yeast – qHTS of Yeast-based Assay for SARS-CoV PLP | S. cerevisiae expressing SARS-CoV PLpro, growth rescue; control for the full effect not named in the record | Potency, µM (doses to about 32.9 µM), for inactives: at the top dose activity, positive = growth rescue | 330,000 tested, 0.19% active; active means well fitted rising curve with a large enough effect; inconclusive means small, poorly fitted or top-dose-only effect; inactive means no such curve, though single readings can be large or run the other way; also: 0% is about no effect; nearly all actives have a fitted effect of over 55% in size; growth read by luminescence after 48 h
# StopGo reporter – High Throughput Screening for Foot and Mouth Disease Virus Antivirals; human cells with a luciferase reporter of 2A StopGo recoding; control for the full effect not named in the record; Potency, µM (doses to about 57.9 µM), for the others: at the top dose signal change, negative = less light; 410,000 tested, 1.2% active; AID 1159524, 2015; active = well fitted falling curve with a large enough effect; inconclusive = small, poorly fitted or top-dose-only effect; inactive = no such curve, though single readings can be large or run the other way; tested in HEK293T cells; also: % is scaled to controls: 0 for no effect and ±100 for the full control effect; nearly all actives have a fitted effect of over 45% in size; luciferase light after 4 h
# Cruzain inh noDet – qHTS Assay for Promiscuous and Specific Inhibitors of Cruzain (without detergent) | AID 1476, 2009 | Potency, µM, inactives show max response, negative = inhibition, most hits filed as inhibitors | 200,000 tested, 2.3% active | purified cruzain, Z-FR-AMC fluorescence, no detergent;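 also: plate controls were enzyme without inhibitor for no effect and buffer without enzyme for full effect; nearly all actives have a fitted effect of over 40% in size; top concentration of the series not given in the record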
#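 Detergent-free condition (0.00005% Triton X-100) in acetate buffer pH 5.5 with DTT. 1.5 nM enzyme and compound were pre-mixed 15 min, then 2 uM Z-FR-AMC substrate added; reaction progress from fluorescence change between first and third reads (60 s).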
# RE007 growth inh – qHTS Assay for Inhibitors of the HIV-1 protein Vpr; S. pombe RE007 Vpr strain, BacTiter-Glo ATP luminescence, 24 h; control for the full effect not named in the record; Potency, µM (top dose mostly 92.2 µM), inactives show at the highest dose activity change, negative = less growth; 360,000 tested, 0.21% active; AID 651644, 2012; active = well fitted falling curve with a large enough effect; inconclusive = small, poorly fitted or top-dose-only effect; inactive = no such curve, though single readings can be large or run the other way;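 also: % is scaled to controls: 0 for no effect and ±100 for the full control effect; nearly all actives have a fitted effect of over 50% in size; the assay follows cell death caused by Vpr and the record does not say whether a fall means rescue or toxicity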
#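 Fission yeast strain RE007, carrying one chromosomally integrated HIV-1 vpr copy, was seeded at OD 0.01 in PMG+AL medium with 23 nL pinned compound. After 24 h at 30 °C and 99% humidity, viability was read by BacTiter-Glo luminescence.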
# Lassa entry inh – qHTS for Inhibitors of binding or entry into cells for Lassa Virus | Lassa virus pseudotype entry inhibition, cell reporter; control for the full effect not named in the record | Potency, µM (highest dose often 37.9 µM), inactives show top-dose activity change, negative = inhibition, hits mostly inhibitors | 300,000 tested, 1.2% active; active means well fitted inhibition curve with a large enough effect; inconclusive means small, poorly fitted or top-dose-only effect, or effect the other way; inactive means flat fitted curve, though single readings scatter; tested in HEK293 cells; also: % is scaled to controls: 0 for no effect and ±100 for the full control effect; nearly all actives have a fitted effect of over 50% in size; luciferase read-out
# NS1 function inh – qHTS Assay for Inhibitors of Influenza NS1 Protein Function; S. cerevisiae slowed by influenza A NS1, growth recovery by OD600; Potency, µM (top dose mostly 46.1 µM), for inactives: top-dose activity, positive = more growth; 270,000 tested, 0.4% active; active means well fitted rising curve with a large enough effect; inconclusive means small, poorly fitted or top-dose-only effect; inactive means no such curve, though single readings can be large or run the other way; also: nearly all actives have a fitted effect of over 50% in size
#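 In this qHTS, NS1 from influenza A is expressed in budding yeast, where it slows growth. Cells are switched from glucose to 2% galactose medium (pH 6.0, -URA), treated with compound, and growth recovery is read at OD600.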
# MARV entry inh – qHTS for inhibitors of binding or entry into cells for Marburg Virus. Marburg virus pseudotyped entry inhibition, cell reporter; control for the full effect not named in the record; about a third of the inactives were read at about 46 µM. Potency, µM (highest dose often 37.8 µM), inactives show at the top dose activity change, negative = inhibition, hits mostly inhibitors. 300,000 tested, 1.8% active. AID 540276, 2011; active = well fitted inhibition curve with a large enough effect; inconclusive = small, poorly fitted or top-dose-only effect, or effect the other way; inactive = flat fitted curve, though single readings scatter; tested in HEK293 cells; about a fifth of its hits are not listed in these tables; also: % is scaled to controls: 0 for no effect and ±100 for the full control effect; luciferase read-out
# * marks the source's active call; other numbers are inactive results; u = inconclusive; x = not tested or not shown; [ ] = dose if it differs, or a comment. Unless noted, calls follow the shape of the dose curve; as a rule, active = well fitted curve in the direction sought with a large enough effect; inconclusive = small, poorly fitted or top-dose-only effect, or another doubt; inactive = no such curve, though single readings can be large; an effect the other way counts as inactive or inconclusive. Potency is read from the fitted curve at half-maximal effect.
mol,SARS PLP yeast,NS1 function inh,MARV entry inh,Cruzain inh noDet,StopGo reporter,RE007 growth inh,Lassa entry inh,Cruzain inh Det
CCCCC1OC23CCCCC2C(C#N)(C#N)C1(C#N)C(=N)O3 (stereo not given),u,8%,-4%,9%,0%,9%,13%,5.0%
Cc1ccc(O)c(/C=N/NC(=O)CN2CCCC2)c1,-7%,-4%,x,x,9%,-8%,x,x
O=C(c1cnc(N2CCCCC2)c2ccccc12)N1CCN(c2ccccc2F)CC1,x,x,x,-2%,-4%,x,-13%[46.1 µM],-12%
Cc1nc2ccccc2c2c1C(=O)N(CCC1=CCCCC1)C2=O,1%,-3%,0%,6%,x,x,x,-1.2%
CCC(Cc1ccccc1)OC(=O)c1ccccc1C(=O)O (stereo not given),x,x,13%[46.1 µM],x,5%,1%,1%[46.1 µM],x
O=C(Nc1nnc(S(=O)(=O)N2CCCC2)s1)c1ccc(F)cc1,x,x,x,-15%,29%,x,0%[46.1 µM],-4.4%
CNC(=S)N/N=C(\C)c1ccc(C)c(C)c1,-31%,-25%,u,-1%,21%,-15%,u,-3.0%
O=C(Nc1ccc(F)cc1)N1CCn2c(nc3ccccc32)C1,0%,4%,2%,-25%,-5%,-11%,-6%,-2.1%
COc1ccc(CCNC(=O)c2cc3c(=O)n(C)c4ccccc4c3n2C)c(OC)c1,-1%,-1%,x,x,u,-2%,x,x
O=C(NC1CCS(=O)(=O)C1)C1CCCCN1S(=O)(=O)c1ccc(Cl)cc1 (stereo not given),4%,5%,5%,-12%,x,-12%,6%,-3.2%
CCCCN(C(=O)C1CCN(C(=O)c2ccccc2C)CC1)c1c(N)n(CCCC)c(=O)[nH]c1=O,0%,2%,23%,x,-9%,17%,19%,x
CCOC(=O)C1=C(C)NC(C)=C(C(=O)OCC)C1/C=C/c1ccccc1OC,19%,-2%,u,u,-9%,-1%,-21%,-23%
CS(=O)(=O)N1CCc2ccc(NC(=O)C3CCCO3)cc2C1 (stereo not given),u,0%,-7%[46.1 µM],x,-1%,-12%,-1%[46.1 µM],x
CCc1ccc(NC(=O)Cn2c(C(=O)OC)cc3oc(C)cc32)cc1,x,x,-20%[46.1 µM],-8%,16%,x,x,-3.9%
O=C(c1ccccc1Br)N1CCN(Cc2ccc3c(c2)OCO3)CC1,1%,16%,-8%,x,u,3%,-4%,x

# Later entries:
mol,SARS PLP yeast,NS1 function inh,MARV entry inh,Cruzain inh noDet,StopGo reporter,RE007 growth inh,Lassa entry inh,Cruzain inh Det
COc1cccc(SCc2noc(C(=O)NCC3CCCO3)c2C(=O)O)c1 (stereo not given),3%,19%,x,1%,-10%,5%,x,-0.5%
Cc1cc(N2C(=O)CC(C(C)c3ccccc3)C2=O)no1 (stereo not given),2%,2%,-20%,-7%,1%,-12%,-3%,-0.2%
CN(CCOc1ccccc1)CC(=O)Nc1ccc(Cl)c(S(=O)(=O)N(C)C)c1,2%,x,u,x,u,-9%,u,x
COc1ccc(N2CCN(Cc3nc4c(c(=O)[nH]c(=O)n4C)n3Cc3ccc(C)cc3)CC2)cc1,x,x,-11%[46.1 µM],12%,-25%,x,9%[46.1 µM],1.5%
CCCNC(=O)Cn1nc(C)n2c(cc3cc(F)ccc32)c1=O,0%,-2%,x,x,-2%,15%,x,x
Cc1ccc(C(=O)C[n+]2cccc3ccccc32)cc1,2%,6%,-10%,1%,0%,-4%,19%,-1.6%
Cc1cc(Nc2ccccc2F)n2nc(C)nc2n1,-8%,-6%,-9%,-5%,-1%,-1%,2%,-0.5%
CCOC(=O)c1cc(S(=O)(=O)N2CCN(c3ccccc3F)CC2)[nH]n1,x,x,x,-1%,3%,x,4%[46.1 µM],-5.4%
Fc1ccc(C2c3[nH]c4ccccc4c3CCN2Cc2cccn2-c2ncccn2)cc1 (stereo not given),1%,0%,u,x,-1%,11%,u,x
CC(=O)c1cc(NC(=O)c2ccc([N+](=O)[O-])cc2)c(=O)oc1C,-2%,-1%,1%[46.1 µM],x,1%,14%,-5%,x
O=C(COC(=O)CSc1ccc([N+](=O)[O-])cc1)NC1CCCCCCC1,-17%,x,16%,x,-9%,36%,7%,x
CC1(C)CC(=O)C/C(=N\NC(=O)c2cccs2)C1,19%,16%,4%,13%,8%,-5%,15%,0.1%
COC(=O)NC1CCC(CC2CCC(NC(=O)OC)CC2)CC1 (stereo not given),-5%,-3%,4%,3%,u,-4%,-8%,0.0%
O=c1c2ccccc2nc(SCc2nnc(-c3ccccc3)o2)n1-c1ccccc1,-1%,-5%,-1%,-19%,x,1%,u,-3.6%
CNC(=O)CSc1nnnn1-c1ccc(C)cc1C,8%,-1%,19%,3%,-21%,-2%,23%,1.1%

# Continued.
mol,SARS PLP yeast,NS1 function inh,MARV entry inh,Cruzain inh noDet,StopGo reporter,RE007 growth inh,Lassa entry inh,Cruzain inh Det
COC(=O)c1ccccc1NC(=O)N1c2ccccc2Sc2ccccc21,-8%,10%,u,u,0%,-8%,u,-6.4%
Fc1ccccc1N1CCN(c2ncnc3onc(-c4ccc(Cl)cc4)c23)CC1,x,x,-16%[46.1 µM],1%,u,x,u,-0.9%
CCn1c(COc2ccccc2)nnc1SCC(=O)Nc1ccc(N2CCOCC2)cc1,-1%,2%,8%,x,2%,-2%,0%,x
CC(OC(=O)c1ccc(Cl)nc1)C(=O)NCc1ccc2c(c1)OCO2 (stereo not given),2%,x,-27%,x,-18%,-14%,u,x
O=C1CS/C(=N\NC(=O)c2ccccc2)N1,-2%,-1%,1%[46.1 µM],x,10%,14%,-2%,x
COC(=O)C1=C(C)N(C)C(=O)NC1c1ccc(O)c(OC)c1 (stereo not given),4%,7%,x,-8%,-5%,20%,x,1.2%
CCOC(=O)c1cnc2sccn2c1=O,3%,3%,3%,9%,-9%,-7%,9%,-1.7%
CC(=O)OCCN1CCN(C(=O)CN2C(=O)NC(c3ccccc3)(c3ccccc3)C2=O)CC1,4%,-6%,x,x,-9%,-8%,x,x
c1ccc2c(Cn3ccnc3)cccc2c1,1%,-6%,0%,x,8%,-17%,1%,x
C=CCN1C=C2C(=O)C(C)(OC(=O)CCC(=O)OC)C(=O)C(Br)=C2C=C1c1ccc(OC)cc1 (stereo not given),0%,-2%,x,x,1%,10%,x,x
CC(C)(C)c1nc(SCC(=O)N2CC(=O)Nc3ccccc32)c2ccccc2n1,0%,2%,-3%[46.1 µM],x,-29%,-21%,-5%,x
O=C(NCC(=O)N1CCN(c2ncc(C(F)(F)F)cc2Cl)CC1)c1ccc(Br)o1,7%,-13%,-30%,x,u,8%,-18%,x
CCCCC(=O)Nc1ccccc1C(=O)N1CCOCC1,14%,1%,11%,5%,17%,3%[3.69 µM],-10%,0.0%
COc1ccc(Cc2nnc(NC(=O)C3CC(=O)N(CCc4ccc(F)cc4)C3)s2)cc1OC (stereo not given),-1%,10%,u,x,-15%,10%,u,x
CCOC(=O)Nc1ccc2c(CNC(C)c3ccccc3OC)cc(=O)oc2c1 (stereo not given),18%,21%,u,x,-25%,13%,u,x

# Next section:
mol,SARS PLP yeast,NS1 function inh,MARV entry inh,Cruzain inh noDet,StopGo reporter,RE007 growth inh,Lassa entry inh,Cruzain inh Det
COc1c(C)cc(Br)cc1C(=O)Nc1ccc(S(N)(=O)=O)cc1,1%,x,18%[46.1 µM],x,-10%,-2%,-13%,x
COc1cccc(NC(=S)N2CCC(N(C)CC3CCCO3)CC2)c1 (stereo not given),-6%,23%,2%,-5%,-23%,-2%,4%,0.5%
CCc1cc(=O)oc2c(CNCc3ccc(OC)cc3OC)c(O)c(Cl)cc12,-1%,4%,-3%,x,-7%,2%,u,x
Cc1ccc[n+](/C(=C\C(=C=[N-])C#N)C(=O)c2ccc(Cl)cc2)c1,0%,-1%,8%[46.1 µM],x,-2%,0%,-10%[46.1 µM],x
COCc1cc(C(C)=O)ccc1OCC(=O)Nc1ccc(NC(C)=O)cc1,1%,x,-4%[46.1 µM],x,-5%,-1%,-3%,x
Cc1cccc(OCC(=O)N/N=C\c2cccn2C)c1C,-6%,x,-22%[46.1 µM],x,-22%,14%,2%,x
Fc1ccccc1-c1nc(NCc2ccccc2)c2ccccc2n1,-5%,-74%,-6%[46.1 µM],x,-11%,u,1%,x
Cc1ccc2oc(=O)c3cc(C(=O)Nc4ccc(F)cc4F)sc3c2c1,x,x,2%[46.1 µM],8%,-29%,x,u,2.0%
Cc1ccc2c(Cl)c(C(=O)N/N=C/c3cccn3C)sc2c1,-15%,14%,-3%,5%,28%,-11%,17%,2.5%
O=C(/C=C/c1ccco1)Nc1nc(-c2ccccc2)cs1,-59%,-1%,u,u,21%,-25%,u,-11%
COc1ccccc1C(=O)NCC(=O)OCc1csc(-c2ccccc2)n1,-27%,-27%,13%,-8%,17%,-28%,22%,-26%
CCN(CC)C(=O)NC(c1ccc(C)c(F)c1)C(Cl)(Cl)Cl (stereo not given),-5%,-10%,u,-1%,u,-7%,9%,-4.0%
CC(=O)c1c(C)[nH]c(C(=O)Nc2ccccn2)c1C,-6%,3%,-22%[46.1 µM],x,-2%,-2%,-20%[46.1 µM],x
CCCN(CC1CC1)C(=O)COC(=O)c1ccc2c(c1)C(=O)N(c1ccc(OCC)cc1)C2=O,0%,x,3%[46.1 µM],x,-17%,-15%,6%[46.1 µM],x
Fc1cccc(Nc2nc(-c3ccncc3)nc3ccccc23)c1,21%,u,u,-10%,25µM*,0%,-10%,0.4%
N#Cc1ccccc1NC(=O)CSc1ccc([N+](=O)[O-])cn1,1%,x,8%[46.1 µM],x,-3%,9%,4%[46.1 µM],x
CC(C)CCOP(=O)(c1ccccc1)c1ccccc1,12%,6%,-4%,-4%,-12%,3%,-1%,-0.5%
Cc1cc(N/N=C(/CCC(=O)O)C(=O)O)nc2ccccc12,-2%,3%,1%[46.1 µM],-7%,-1%,5%,-12%,-3.0%
